ELG1 genotoxic – inducers of genotoxicity in HEK293T ELG1-luciferase cells | HEK293T ELG1-luciferase reporter, luminescence, 16 h | Potency, µM (doses to about 46 µM), inactives show at the top dose activity change, positive = activation, actives largely listed as activators | hit rate 1.3% among 330,000; note: % of control where 0% means no effect; nearly all actives have a fitted effect of over 60% in size
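Cells (2,000/well) expressing the ELG1-luciferase fusion are dosed by pin tool and kept 16 hr at 37 °C, 5% CO2. Signal comes from ONE-Glo luciferase reagent after 30 min at room temperature.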
p53 reactivation – re-activators of mutant p53; hit rate 0.063% among 320,000; Potency, µM (top dose mostly 92.2 µM), for inactives: top-dose activity change, positive = activation, usual class: activators; H1299 p53-A138V BP100-luciferase reporter, luminescence, 24 h; note: % of control where 0% means no effect; nearly all actives have a fitted effect of over 45% in size
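H1299 (p53-null), stable ts p53-A138V + BP100-Luc; 1000 cells/well, Opti-MEM/10% FBS; cpd 4 pt, 1:5; 24 h, 37 deg C, 5% CO2; detection reagent 10 min RT; luminescence.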
MLL CXXC-DNA inh – inhibitors of human MLL CXXC domain-DNA interaction; Potency, µM (top dose mostly 115 µM), for the others: at the top dose activity change, negative = inhibition, hits mostly inhibitors; AID 2662; MLL-CXXC / FITC-HOXA9 DNA fluorescence polarization; Q03164; hit rate 0.037% among 290,000; active = well fitted inhibition curve with a large enough effect in the polarisation, with a control signal flat, not every such curve was filed as active; the % refers to the polarisation
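Fluorescence polarization: 7 uM MLL-CXXC (stock) preincubated 5 min with compounds, then 50 nM fluorescein-HOX-A9 DNA (stock) added; 30 min ambient. Buffer 50 mM Tris-HCl pH 7.5, 50 mM NaCl, 1 mM DTT, 0.05% BSA.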
BRCA1 expr up – BRCA1 expression activation | MCF7-BRCA1-FFLuc reporter, luminescence, 48 h; response scale: scaled: vehicle 0%, 10 µM genistein 100% | Potency, µM (top dose mostly 46.1 µM), for the others: at the top dose activation, usual class: activators | hit rate 1.1% among 380,000 | AID 624202; note: nearly all actives have a fitted effect of over 80% in size; some results filed as inactive show a strong effect at the top dose
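First, MCF7-BRCA1-FFLuc cells (2000/well) attach for 2 h; next, compounds are pin-added and incubated 48 h at 37 °C; finally, luciferase reagent is added and luminescence read after 15 min.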
MBNL1-CUG inh – MBNL1-poly(CUG) RNA binding inhibition; Q9NR56; TR-FRET MBNL1-His/biotin-(CUG)12 binding, 665/545 ratio; Potency, µM (highest dose often 57.5 µM), for inactives: at the top dose activity change, negative = inhibition, usual class: inhibitors; hit rate 0.036% among 280,000; AID 2675; active = well fitted inhibition curve with a large enough effect in the signal ratio, with a control signal flat, not every such curve was filed as active; the % refers to the signal ratio; note: % is set by controls: 0 for no effect and ±100 for the full control effect
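His-tagged MBNL1 binding to biotinylated (CUG)12 RNA was measured by TR-FRET using terbium anti-His antibody (0.055 ng/ul final) and streptavidin-XL665 (5 nM final). Compounds were titrated 92 nM to 58 uM; 60 min at room temperature.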
NPC1 promoter act – activates the NPC1 promoter. Huh7 NPC1 promoter luciferase reporter, 24 h. Potency, µM (doses to about 9.22 µM), for inactives: top-dose activation, hits mostly activators. hit rate 2.4% among 320,000. AID 485313;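 note: % of control where 0% means no effect; nearly all actives have a fitted effect of over 60% in size; reporter is driven by a mutant NPC1 promoter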
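NPC1 promoter–luciferase Huh7 cells; 24 h compound; luminescence.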
An asterisk follows results filed as active; . = no result given; & = joins results of further samples; [ ] = dose if it differs, or a comment. Unless noted, calls come from the whole dose curve; as a rule, active = well fitted activation curve with a large enough effect; inconclusive = small, poorly fitted or top-dose-only effect; inactive = no such curve, though single readings can be large or run the other way. Potency is the fitted concentration of half-maximal effect.

| mol | MBNL1-CUG inh | BRCA1 expr up | p53 reactivation | MLL CXXC-DNA inh | ELG1 genotoxic | NPC1 promoter act |
| --- | --- | --- | --- | --- | --- | --- |
| C[C@]12CCC(=O)C=C1CCC1C2CC[C@@]2(C)C1CC[C@@H]2O (stereo partly drawn) | . | -30% | 2% | . | -1% | . |
| Cc1c(C(=O)c2cccc3ccccc23)c2cccc3c2n1[C@H](CN1CCOCC1)CO3 | . | -65% | . | 3% | . | -31%[inhibitor][46.1 µM] |
| C[C@]12CC[C@H](O)CC1=CCC1C2CC[C@]2(C)C(=O)CC[C@@H]12 (stereo partly drawn) | . | . | . | 2%&4% | . | . |
| Cc1ccccc1[N+](=O)[O-] | . | 5% | 15% | . | 1% | 1% |
| CN1[C@@H]2CC[C@H]1CC(OC(=O)C1C=Nc3ccccc31)C2 (stereo partly drawn) | -17% | 0% | -1% | 15% | 0% | 1% |
| Oc1cc(Cl)c(Cl)c(Cl)c1Cl | . | 0% | . | . | . | . |
| Clc1ccc(CS[C@@H](Cn2ccnc2)c2ccc(Cl)cc2Cl)cc1 | . | . | . | -3%[51.4 µM] | . | . |
| CN(C)[C@@H]1C(=O)C(C(N)=O)=C(O)[C@@]2(O)C(=O)C3=C(O)c4c(O)cccc4[C@@](C)(O)C3C[C@@H]12 (stereo partly drawn) | . | 0% | -2% | . | -5% | 0% |
| Oc1cccc2cccnc12 | 15% | -17% | . | -19%&-7% | -6% | -26% |
| C[C@]12CCC3C(CC[C@H]4CC(=O)CC[C@]34C)C1CCC2=O (stereo partly drawn) | . | 0% | -15% | . | -2% | . |

Some of these compounds in order of molecular weight, highest first:
| mol | MBNL1-CUG inh | BRCA1 expr up | p53 reactivation | MLL CXXC-DNA inh | ELG1 genotoxic | NPC1 promoter act |
| --- | --- | --- | --- | --- | --- | --- |
| CN(C)[C@@H]1C(=O)C(C(N)=O)=C(O)[C@@]2(O)C(=O)C3=C(O)c4c(O)cccc4[C@@](C)(O)C3C[C@@H]12 (stereo partly drawn) | . | 0% | -2% | . | -5% | 0% |
| Cc1c(C(=O)c2cccc3ccccc23)c2cccc3c2n1[C@H](CN1CCOCC1)CO3 | . | -65% | . | 3% | . | -31%[inhibitor][46.1 µM] |
| Clc1ccc(CS[C@@H](Cn2ccnc2)c2ccc(Cl)cc2Cl)cc1 | . | . | . | -3%[51.4 µM] | . | . |
| C[C@]12CC[C@H](O)CC1=CCC1C2CC[C@]2(C)C(=O)CC[C@@H]12 (stereo partly drawn) | . | . | . | 2%&4% | . | . |
| CN1[C@@H]2CC[C@H]1CC(OC(=O)C1C=Nc3ccccc31)C2 (stereo partly drawn) | -17% | 0% | -1% | 15% | 0% | 1% |
| Oc1cc(Cl)c(Cl)c(Cl)c1Cl | . | 0% | . | . | . | . |
| Oc1cccc2cccnc12 | 15% | -17% | . | -19%&-7% | -6% | -26% |
| Cc1ccccc1[N+](=O)[O-] | . | 5% | 15% | . | 1% | 1% |

Record cards, from the list above. Screens in order: MBNL1-CUG inh | BRCA1 expr up | p53 reactivation | MLL CXXC-DNA inh | ELG1 genotoxic | NPC1 promoter act
`Oc1cccc2cccnc12` across the screens: 15% | -17% | . | -19%&-7% | -6% | -26%
`C[C@]12CCC(=O)C=C1CCC1C2CC[C@@]2(C)C1CC[C@@H]2O` (stereo partly drawn) across the screens: . | -30% | 2% | . | -1% | .

Assay outcomes deposited in PubChem BioAssay by National Center for Advancing Translational Sciences (NCATS).

This is a subset; count on the stated rates, not on these rows.
